# Screening results as filed in PubChem.
# B2AR ag – human beta-2 adrenergic receptor agonism by FAP. P07550. Am2.2-beta2AR cells, FAP receptor internalization, flow cytometry; reference of the scale not given here. response, % (no concentration beside the values). 340,000 tested, 0.43% active;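 active = response above a set limit, near 3 SD of response in nonfluorescent compounds, cut at about 42% in these data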;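 note: stock transfer was 100 nL into about 11 µL; a reference agonist was the positive control; negative values mostly stem from fluorescent compounds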
# HNF4A DNA FP – change in binding of human HNF4 alpha to DNA; P41235; activity change, % at 10 µM; 360,000 tested, 0.3% active; HNF4a-FITC DNA binding, fluorescence polarization, 1 h; AID 1224865; in the data active = activity change above about 30%, passing the limit was not always enough;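 note: controls were the assay level and a saturating level of protein; the project sought stronger binding though the title names inhibitors; some compounds called inactive have numbers as strong as hits; positive values seem to mean higher polarization but the record does not say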
# ALR inh – human ALR oxidase inhibition via reduced H2O2; P55789; purified ALR, DTT oxidation, H2O2 HRP-luminol luminescence; inhibition, % (no concentration beside the values); 290,000 tested, 3.8% active;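 active = mean and each replicate at 75% or more; inconclusive = only one of the two met; inactive = neither met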;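 note: stock transfer was 7.5 nL into about 7.5 µL; 0% = neutral wells and 100% = wells with inactivated enzyme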
# RanGTP-Imp inh – disruptors of Ran-importin-beta complex formation – biochemical, FRET, CFP-Ran, YFP-importin-beta, homogeneous, primary screen; cell-free CFP-Ran/YFP-importin-beta FRET ratio; 300,000 tested, 1.1% active; inhibition, % (test concentration not listed);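 active = most replicates above 15%; inconclusive = exactly half above 15%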;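 note: 0% = DMSO wells and 100% = Ran loaded with GDP instead of GTP; wells of about 40 µL received 100 nL stock; the first replicate is given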
# Vif A3G – HIV-1 Vif–A3G interaction blockers – biochemical, TR-FRET, GST-Vif 1-94, biotin-A3G peptide, dose response retest, primary screen (AID 1117319); 260,000 tested, 0.57% active; inhibition, %, or IC50 in µM where a hit was titrated; TR-FRET GST-Vif / biotin-A3G peptide binding; higher % means a stronger effect; test concentration not given here; strong numbers were not always called active;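 active = above the screen mean plus three standard deviations and confirmed in dose response; inconclusive = results disagree or hit not tested in dose response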;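 note: Vif residues 1-94 fused to GST binding biotinylated APOBEC3G peptide 110-148; 0% = full assay without inhibitor and 100% = GST in place of GST-Vif; retest series ran down from 100 µM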
# LANA-H2A inh – blocks KSHV LANA binding to histone H2A/H2B | inhibition, % (concentration not given with the values) | 320,000 tested, 0.6% active | Q9QR71 | cell-free LANA-H2A/H2B peptide, fluorescence polarization | AID 2629; in the data active = inhibition mostly above about 10%, no sharp cut-off; inactive = mostly below about 6.7%;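 note: stock transfer was 7.5 nL into about 10 µL; 0% = median of vehicle wells and 100% = median of positive control wells; one replicate is shown; the record names a cut of 25% in any replicate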
# Target sequence (Q9QR71 whole entry, looked up): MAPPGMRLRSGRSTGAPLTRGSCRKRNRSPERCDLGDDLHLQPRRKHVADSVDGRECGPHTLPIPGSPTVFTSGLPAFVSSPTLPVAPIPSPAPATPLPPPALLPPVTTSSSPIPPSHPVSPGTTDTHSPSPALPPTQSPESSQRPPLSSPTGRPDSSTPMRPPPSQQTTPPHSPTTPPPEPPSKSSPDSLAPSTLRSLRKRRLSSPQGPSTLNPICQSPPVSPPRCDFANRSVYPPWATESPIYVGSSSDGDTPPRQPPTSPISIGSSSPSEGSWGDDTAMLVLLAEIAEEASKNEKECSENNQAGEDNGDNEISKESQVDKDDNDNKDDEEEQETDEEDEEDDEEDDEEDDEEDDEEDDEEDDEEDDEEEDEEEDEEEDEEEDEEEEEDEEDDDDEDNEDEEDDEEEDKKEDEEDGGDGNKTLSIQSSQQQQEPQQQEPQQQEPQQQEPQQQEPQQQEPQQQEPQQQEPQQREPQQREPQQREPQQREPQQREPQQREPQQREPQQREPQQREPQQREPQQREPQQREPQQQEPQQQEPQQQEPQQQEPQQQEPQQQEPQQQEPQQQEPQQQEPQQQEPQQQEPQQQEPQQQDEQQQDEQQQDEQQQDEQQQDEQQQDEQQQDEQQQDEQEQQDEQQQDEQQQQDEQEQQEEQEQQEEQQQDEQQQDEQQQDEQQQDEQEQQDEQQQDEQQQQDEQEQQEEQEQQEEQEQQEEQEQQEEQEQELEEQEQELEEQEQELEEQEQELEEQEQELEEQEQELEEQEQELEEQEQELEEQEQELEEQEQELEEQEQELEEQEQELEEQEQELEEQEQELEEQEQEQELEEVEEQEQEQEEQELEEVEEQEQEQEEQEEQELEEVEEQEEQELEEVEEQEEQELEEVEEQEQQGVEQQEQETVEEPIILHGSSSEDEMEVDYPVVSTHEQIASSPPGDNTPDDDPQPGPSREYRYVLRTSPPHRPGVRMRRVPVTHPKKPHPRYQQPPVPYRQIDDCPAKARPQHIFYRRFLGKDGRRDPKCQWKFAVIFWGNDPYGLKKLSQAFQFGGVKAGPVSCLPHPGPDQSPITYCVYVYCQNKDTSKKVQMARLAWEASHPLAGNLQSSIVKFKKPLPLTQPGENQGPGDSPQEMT
# Calb FLC – C. albicans growth modulation with fluconazole; 300,000 tested, 0.57% active; growth inhibition, % (no concentration beside the values); C. albicans CaCi-2 (fluconazole-resistant clinical isolate) + fluconazole, Alamar Blue growth, 48 h;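 active = most replicates above 75%; inconclusive = exactly half above 75%; inactive = most below 75%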;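 note: all wells also contain fluconazole at 8 µg/ml as a sub-toxic cotreatment; 0% = median of DMSO wells and 100% = median of geldanamycin control wells; wells of about 8 µL received 7.5 nL stock; the first replicate is given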
# Active calls of the source: *; ? = inconclusive; . = not tested or not shown.
# Each structure is followed by: ALR inh, B2AR ag, Calb FLC, HNF4A DNA FP, LANA-H2A inh, Vif A3G, RanGTP-Imp inh
O=C(CSc1ncccn1)Nc1ncc(C(F)(F)F)cc1Cl
 : 0, -1, 4, 11, 1.2, ., -1.9
Cc1cc(-n2nc(C)cc2C)nc(NS(=O)(=O)c2ccccc2Cl)n1
 : -5, 3, 68, 1.9, 3.0, 3%, 1.7
O=C(NCc1ccccn1)c1c(-c2ccccc2)sc2ccccc12
 : 4, -3, ., -3.5, 0.9, ., .
CC(CN1CCCCCC1)C(=O)NN (stereo not given)
 : ., -8, 7, -0.8, 2.6, 3%, ?
CCOC(=O)C1CCCN(C(=O)Nc2c(-c3ccccc3)noc2C)C1 (stereo not given)
 : -10, -2, 2, -2.8, 0.4, 18%, 2.7
Cc1ccc(-c2c(C(=O)NNC(=S)NCC3CCCO3)csc2C)cc1 (stereo not given)
 : 14, 0, 4, 1.3, 0.4, ?, -3.7
COc1ccc(/C(C)=N/NC(=O)c2ccc(NS(=O)(=O)c3cccs3)cc2)cc1
 : 27, 18, -4, 0.4, 1.1, ?, -1.9
COc1cc(S(=O)(=O)Nc2cccc(C)c2)ccc1NC(=O)c1ccncc1
 : 7, 6, -3, 2.2, -0.6, 6%, 0.4
CCOCCCNC(=O)c1cc(Sc2ccc(C)cc2)nc2ccccc12
 : -4, -1, 20, -2.2, 0.0, ., 4.7
CC(NC(=O)c1ccc2nc[nH]c2c1)c1ccccc1 (stereo not given)
 : -2, -1, -27, -4.1, 0.7, -8%, -1.8
Cc1ccc(C(=O)N2CC(C)SC2=Nc2cccc(S(=O)(=O)N(C)C)c2)cc1 (stereo not given)
 : -3, -6, 7, -1.2, -2.6, ., 4.2
O=C(Nc1cccc2ccccc12)NC1CCCCC1O (stereo not given)
 : -34, -6, 4, -0.8, 2.0, ., ?
COCCn1c(C)cc(/C=C2/NC(=O)N(c3cccc(Cl)c3)C2=O)c1C
 : -5, 1, -5, 0.7, 0.0, 2%, -3.2
COc1ccc(NC(=O)c2noc(C(C)C)c2[N+](=O)[O-])cc1
 : 6, 8, 46, 3.0, 2.7, ., -2.1
O=C(COC(=O)c1cc(S(=O)(=O)N2CCOCC2)c(Cl)cc1Cl)NC1CC1
 : 4, 11, ., -1.9, 1.4, 1%, .
COCC(=O)N1CCC(Oc2ccc(C(=O)NCCCn3cccn3)cc2)CC1
 : -5, 0, 36, -0.8, -1.9, ., -0.1
COc1ccc(C(=O)NCC2CCCN2S(=O)(=O)c2cccs2)cc1OC (stereo not given)
 : -12, -7, 5, -5.7, -6.1, 4%, 5.1
CC1CCCN(C2=C(NS(=O)(=O)c3ccc(Cl)cc3)C(=O)c3ccccc3C2=O)C1 (stereo not given)
 : -21, 3, 10, 6.7, 9.6, 6%, -1.6
CC(=O)OCC(=O)C1(O)CCC2C3CCC4=CC(=O)C=CC4(C)C3C(=O)CC21C (stereo not given)
 : ., -11, ., -0.9, ., -9%, .
Cc1c(C)n(CCC#N)c2ccccc12
 : 52, -5, 23, 4.1, 1.4, ., -1.8

# For convenience, four of the compounds above.
# Each structure is followed by: ALR inh, B2AR ag, Calb FLC, HNF4A DNA FP, LANA-H2A inh, Vif A3G, RanGTP-Imp inh
Cc1ccc(C(=O)N2CC(C)SC2=Nc2cccc(S(=O)(=O)N(C)C)c2)cc1 (stereo not given)
 : -3, -6, 7, -1.2, -2.6, ., 4.2
O=C(Nc1cccc2ccccc12)NC1CCCCC1O (stereo not given)
 : -34, -6, 4, -0.8, 2.0, ., ?
COCCn1c(C)cc(/C=C2/NC(=O)N(c3cccc(Cl)c3)C2=O)c1C
 : -5, 1, -5, 0.7, 0.0, 2%, -3.2
COc1ccc(NC(=O)c2noc(C(C)C)c2[N+](=O)[O-])cc1
 : 6, 8, 46, 3.0, 2.7, ., -2.1

# Remaining list, next part
# Each structure is followed by: ALR inh, B2AR ag, Calb FLC, HNF4A DNA FP, LANA-H2A inh, Vif A3G, RanGTP-Imp inh
CC(C)C[C@H](NC(=O)OC(C)(C)C)C(=O)N1CCC(C(=O)N[C@@H](Cc2ccccc2)C(=O)O)CC1
 : 3, ., ., -3.2, 1.6, ?, .
O=C1CSC(c2cccs2)N1c1ccccc1 (stereo not given)
 : ., 1, -2, -0.7, 1.4, ?, -1.9
CCCCCSc1nc(O)cc(=O)[nH]1
 : 3, -5, -2, -3.0, -3.3, 3%, 0.0
CCCNC(=O)CSCc1nc(-c2ccc(SC)cc2)oc1C
 : 99*, -7, 0, -1.7, 1.2, ., 2.4
COC(=O)c1ccc(NC(=O)c2ccccc2N(C)S(C)(=O)=O)cc1
 : -2, 2, 8, 0.5, 5.7, -5%, -2.9
CN(Cc1ccccc1)C(=S)NC(=O)c1ccccc1
 : 3, -9, -5, -0.4, -3.9, -4%, 2.5
O=C(NCc1csc(-c2ccccc2)n1)c1ccco1
 : 10, 6, 1, 1.8, -11, 0%, 2.2
CCN(CC)S(=O)(=O)c1cc(C(=O)Oc2cccc(-c3cnc4ccccc4n3)c2)ccc1OC
 : ., -23, -1, 2.5, 1.6, ., 0.2
CSc1ncc(CO)n1Cc1ccccc1
 : -6, -3, -13, 0.6, 2.8, 14%, -1.8
COc1ccc(OC)c(S(=O)(=O)N(C(C)=O)c2ccc3oc(=O)sc3c2)c1
 : 9, 5, 9, 2.0, 1.8, 14%, -1.0
CCOc1ccc(-n2c(C)cc(/C=N\NC(=O)CC(=O)NC3CCCCC3)c2C)cc1
 : -3, -8, 3, 2.2, 1.4, 5%, 0.6
CCCNC(=O)NC(=O)CSc1ncc(C(F)(F)F)cc1Cl
 : 0, 2, -15, 14, 3.4, 5%, 3.9
CC(C)(C)OC(=O)NCC1CCN(S(=O)(=O)Cc2ccccc2)CC1
 : -7, -3, 5, -3.5, -1.0, 1%, -1.8
COc1ccc(C(C)=O)c(Oc2ccc(S(=O)(=O)N3CCOCC3)cn2)c1
 : ., 7, ., 2.8, 4.5, ., .
CC1CCC2(CC1)NC(=O)N(CC(=O)N1c3ccccc3CC1C)C2=O (stereo not given)
 : -9, -2, ., -2.1, -5.9, -7%, .
COc1ccc(NC(=O)CSc2nc3ccccc3c(=O)n2CCNC(C)=O)cc1
 : -4, -8, 0, -1.8, -0.2, 3%, -2.4
Cc1ccc(N)cc1NC(=O)CN1CCOCC1
 : -67, -4, 28, 3.9, -4.0, ., -0.4
COC(=O)c1[nH]c2ccccc2c1NC(=O)CNC1CCCCC1
 : -6, 14, 6, 3.0, 0.2, 4%, 5.3
CCCCOC(=O)NC1CCc2cc(OC)c(OC)c(OC)c2-c2ccc(SC)c(=O)cc21 (stereo not given)
 : ., 2, ., -1.5, ., -1%, .
COc1cc(C)ccc1S(=O)(=O)N1CCN(C23CC4CC(CC(C4)C2)C3)CC1
 : -22, -1, 12, -2.2, 2.1, 2%, -5.4
CCOc1cc(NC(=O)c2cnccn2)c(OCC)cc1NC(=O)c1cccc(F)c1
 : -16, ., 13, ., -2.0, ., 6.7
Cc1ccc(C(=O)O/N=C/c2ccc3c(c2)OCO3)cc1
 : -2, -3, 8, 1.6, -6.3, ., ?
CN1CCN(CC(=O)N2c3ccccc3C(C)(c3ccc(Cl)cc3)CC2(C)C)CC1 (stereo not given)
 : -16, 12, 1, 2.5, -0.1, 1%, 0.5
O=S(=O)(NCc1ccc(Cl)cc1)c1cccc2cccnc12
 : 0, 1, 7, 3.2, -1.0, ., 2.8
COc1cccc(N2CCN(C(=O)c3ccc(-c4ccccc4)cc3)CC2)c1
 : -5, 10, -25, -2.4, 4.1, ., 6.5
CCOc1ccc(N(C)S(=O)(=O)c2ccc(C)c(C(=O)NCCc3ccc(OC)cc3)c2)cc1
 : ., -7, ., -4.0, ., 1%, .
COc1ccc(C(=S)N2CCCCCC2)cc1
 : 54, -3, -13, 0.9, 2.9, ?, -2.4
Cc1nc(S(=O)(=O)c2ccc(Br)cc2)nc2c1CCC2
 : -1, -14, 2, 3.1, -6.6, -8%, ?
CN(CC(=O)Nc1ccncc1)S(=O)(=O)c1ccccc1
 : -13, -4, 4, -4.1, 3.2, -1%, -2.3
CC12CC(NC(=O)N1c1cccc(C(=O)NCc3ccc4c(c3)OCO4)c1)c1cc(Cl)ccc1O2 (stereo not given)
 : -4, 9, 3, 1.9, -0.2, 0%, -4.5
CCOC(=O)c1c(C)c(C(=O)Nc2ccc3c(c2)OCCO3)c(C)n1C
 : -8, -6, -16, 1.0, -8.6, -1%, 2.7
Cc1onc(-c2ccccc2Cl)c1C(=O)Nc1nc2ccc(S(C)(=O)=O)cc2s1
 : 20, 10, -11, 0.0, -2.9, 24%, -0.9
CCCCNC(=O)CN1C(=O)c2cccc(N)c2C1=O
 : ., -3, -7, -17, ., 5%, -3.4
CCOC(=O)c1cnn(-c2ccccc2)c1NC(=O)CN1CCOCC1
 : -7, 7, -5, -1.6, 7.8, 7%, -0.1
O=C(CSc1ncn[nH]1)Nc1ccccc1Sc1ccccc1
 : 19, -2, 18, 4.0, -0.5, 2%, -6.7
Cc1ccc(S(=O)(=O)N(C)C)cc1NC(=O)COC(=O)/C=C/c1ccc2c(c1)OCO2
 : -2, -9, -12, 1.0, -1.3, 10%, -2.3
Cc1ccc(NC(=O)CCC(=O)N/N=C/c2ccc([N+](=O)[O-])o2)cc1C
 : -25, -1, 7, -3.5, -2.7, ?, 21*
Cc1cc(C)cc(N(C(=O)CCC(=O)Nc2cc(C)on2)C(C(=O)NC2CCCC2)c2ccco2)c1 (stereo not given)
 : -3, 7, 31, 3.3, 0.7, 0%, 2.0
Cc1cccc(CN2CCc3c([nH]c4ccccc34)C2)c1
 : 2, 2, -6, 0.1, 6.1, -1%, -8.2
O=C(O)c1ccc(Cl)c(NC(=S)NC(=O)c2cccc(COc3ccccc3)c2)c1
 : 3, 6, 1, 0.0, 3.9, ., 0.2
COc1cc(OC)c(-c2nnc(-c3ccc(OC)c(OC)c3OC)o2)cc1OC
 : 2, -6, 0, 1.1, 4.0, 0%, -2.7
NS(=O)(=O)c1cnccc1Nc1cccc(Br)c1
 : 1, 1, 2, 2.1, -4.6, ., 2.0
CCCCNC(=O)N1CCc2ccccc2C1
 : 3, 1, -20, -3.0, -1.6, -1%, ?
CC(=O)c1cc2c(cc1NC(=O)CCNC(=O)c1ccccc1Cl)OCO2
 : -13, 26, ?, 1.5, 1.6, -8%, -2.9
Cc1ccc(NC(=O)CN2C(=O)NC3(CCCCC3)C2=O)cc1S(=O)(=O)N1CCOCC1
 : 0, -2, ., 2.7, 2.3, -7%, .
CSc1nnc(C)c(=O)n1COC(=O)c1cc(Cl)ccc1[N+](=O)[O-]
 : -12, 0, 10, 1.6, 2.1, 5%, 4.6
COC(=O)/C=C1\C(=O)N(c2nc3ccccc3s2)C(=S)N1c1ccc(F)cc1
 : 15, 17, 12, -4.1, -4.3, 3%, 5.0
CC(=O)c1ccc(Cl)c(Cl)c1Cl
 : 6, -8, ., 0.0, -4.4, ., .
O=C(COc1ccccc1[N+](=O)[O-])Nc1ccc2oc(=O)ccc2c1
 : -7, -1, 0, 2.2, -2.4, ., 0.8
CCCCSc1cnn(-c2ccccc2)c(=O)c1SCCCC
 : ., 2, ?, 2.1, -1.6, -2%, 0.6
COc1cccc(-n2nnc3c(=O)n(CC(=O)N4CCC(C)CC4)cnc32)c1
 : -5, -2, -27, 0.6, -4.0, 2%, 0.4
CC(=O)c1cc(F)c(N2CCN(C(=O)COc3ccccc3F)CC2)cc1C
 : -6, 9, 7, -1.5, 3.6, -9%, 1.3
CCN(CC)C(=O)CSc1nc(C)cc(-c2cccs2)c1C#N
 : 2, -2, -3, 3.2, 3.9, ?, 0.9
CCC(C)[C@H](NC(=O)Nc1ccc2c(c1)OCCO2)C(=O)O (stereo not given in full)
 : -9, 2, -1, 0.3, 5.7, 6%, 1.7
Cc1ccc(OCC(=O)Nc2ccc(N3CCN(S(C)(=O)=O)CC3)cc2)cc1C
 : ., -2, -37, 1.3, 1.6, ., 2.4
